CapD inh: CapD enzyme inhibition; AID 492967; purified CapD enzyme, fluorescence intensity read-out; active compounds read low; some hits fall short of the stated cut; 0.23% of 140,000 active; z-score (no concentration beside the values);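 active means z-score under -4 in either of two replicates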;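 further: stock transfer was 100 nL into about 40 µL; score is relative to mean and spread of the plate; one replicate is shown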
AID504770: E. coli YBA685 growth inhibition, screen for V. cholerae RctB inhibitors. E. coli YBA685 rctB-dependent plasmid, OD600 growth, 3 h; active compounds read low. z-score (no concentration beside the values). 0.27% of 130,000 active. AID 504770;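 active means z-score under -2 on both plates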;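 further: wells of about 30 µL received 100 nL stock; score is relative to mean and SD of the test wells; the first replicate is given; strong numbers were not always called active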
* hit, by the source's call; / = not tested or not shown; & = joins results of further samples.

Results follow in this order: CapD inh, AID504770
O=C(Nc1cccc(C(F)(F)F)c1)c1ccc2nonc2c1
→ 0.285, -0.3
CCCc1c(C(=O)Nc2ccc3ccccc3n2)cnn1-c1ccccc1
→ 7.95, -0.6
CCCSc1nnc(NC(=O)c2nn(-c3cccc(C)c3)ccc2=O)s1
→ 0.1, 0.8
CCc1ccc(OCCCC(=O)NCc2ccco2)cc1
→ -0.32, -0.3
O=C(OCC(=O)N1CCCCC1)c1ccc(NS(=O)(=O)c2ccc3c(c2)OCCO3)cc1
→ /, 1.05
Nc1ccc(S(=O)(=O)Nc2cnc3ccccc3n2)cc1
→ 1.25&-1.18, /
CS(=O)(=O)N1CCc2cc(C(=O)CSc3nnc4ccccn34)ccc21
→ /, -0.6
CCOC(=O)NN(C(=O)OCC)c1c(C)c(C)c(C)c(C)c1C
→ 0.11, /
CN(C)CCN(Cc1cccs1)c1ccccn1
→ 0.17&0.2, -0.3
CC(=O)N1CCC(N(C(=O)Nc2cccc(C)c2)C2CCCC2)CC1
→ 0.32, 0.15

Remaining list, next part:
Results follow in this order: CapD inh, AID504770
COc1cccc(C(=O)Nc2ccc3c(c2)COC3=O)c1
→ /, 0.75
CCOC(=O)c1c(C)oc2ccc(N(C(=O)c3cccc([N+](=O)[O-])c3)S(=O)(=O)c3ccc(C)cc3)cc12
→ -0.43, /
CCOc1ccc2c(c1)sc(=NC(=O)c1ccc(S(=O)(=O)N3CCc4ccccc43)cc1)n2C
→ 0.055, -0.25
COc1ccc(NC(=O)CSc2nc(NS(=O)(=O)c3ccccc3)cc(=O)[nH]2)cc1
→ /, -0.4
Cc1ccc2c(c1)NC(C)(C)c1sn(Cc3ccc(Cl)cc3)c(=S)c1-2
→ -1.03, /
Nc1c(N2CCN(c3ccccc3)CC2)c2ccccc2oc1=O
→ -0.435, 1.35
CC(C)CCCC(C)C1CCC2C3CC=C4CC(OC(=O)CC(C)Cl)CCC4(C)C3CCC12C (stereo not given)
→ 0.055, /
Cc1ccc(S(=O)(=O)/N=C/c2ccco2)cc1
→ /, 0.6
O=C(CN1C(=O)c2cccnc2Oc2ccc(Cl)cc21)N1CCCCC1
→ 0.32, 0.35
COC(=O)CCC(=O)Nc1ccc(S(N)(=O)=O)cc1
→ 0.125, /

(more compounds)
Results follow in this order: CapD inh, AID504770
O=C(NCCc1ccccc1)C1CC(=O)N(Cc2ccc3c(c2)OCO3)C(=Nc2ccc(F)cc2)S1 (stereo not given)
→ 0.23, /
Ic1ccc2nc(-c3ccccc3)cn2c1
→ -0.235, -0.9
Cc1noc(C)c1CN1CCN(c2ccccc2)CC1
→ -0.565, 1.95
COc1ccc2cc(C(C)C(=O)N3CCC(C(N)=O)CC3)ccc2c1 (stereo not given)
→ /, 0.65
O=C(Cn1cnc2c(cnn2CCO)c1=O)N1CCOCC1
→ /, -0.5
c1ccc2c(c1)CCN(c1ncnc3sccc13)C2
→ /, 1.25
O=C(CSCc1cc2cccc3c2n(c1=O)CCC3)NCc1cccc(Cl)c1
→ 0.745, /
CNC(=S)NCCN1CCOCC1
→ -0.31, -0.5
Cc1ccccc1S(=O)(=O)Nc1nc2ccccc2nc1Nc1ccc(S(=O)(=O)N2CCOCC2)cc1
→ /, -0.9
CC(C)Cc1ccc(C(C)C(=O)NC(Cc2ccccc2)C(N)=O)cc1 (stereo not given)
→ -0.77, 1

Following part:
Results follow in this order: CapD inh, AID504770
O=C1c2ccccc2-c2onc3ccc(Oc4ccc(Cl)cc4)c1c23
→ -0.34, /
O=C1NCCN1CCNS(=O)(=O)c1cc(C(F)(F)F)cc(C(F)(F)F)c1
→ 0.555, -0.15
c1ccc(C2(c3ccccc3)OCC(Cn3cncn3)O2)cc1 (stereo not given)
→ -0.305, 2
CNc1ccccc1C(C)(C)c1ccnn1-c1ccccc1
→ -0.13, 2.45
COc1ccc(Cn2c(=O)[nH]c3ncccc3c2=O)cc1
→ -0.67, 0.95
Cc1oc(-c2ccc(C(=O)NCc3ccccc3)cc2)nc1CS(=O)c1ccccc1 (stereo not given)
→ 1.56, 0.45
CCOC(=O)c1sc2ncnc(N3CCN(Cc4ccccc4)CC3)c2c1C
→ 0.57, /
O=C1Nc2ccccc2C(=O)N2CCCC12 (stereo not given)
→ /, -0.55
Ic1cccc2c1N1CCN2CC1
→ 1.38, 0.55
CCCCn1c(=S)[nH]c2cc(Cl)ccc2c1=O
→ /, 0.65

Carrying on:
Results follow in this order: CapD inh, AID504770
O=C1NC(c2ccc(Cl)cc2)Nc2sc3c(c21)CCCC3 (stereo not given)
→ 0.08, /
Cn1c(SCCC(=O)Nc2ccccc2)nnc1-c1cc2ccccc2o1
→ 0.785, -0.2
Cn1ncc2c(NC3CCCCC3)ncnc21
→ 0.945, 2.45
CCN(CC)S(=O)(=O)c1ccc(C(=O)NCc2ccc3[nH]c(C)cc3c2)cc1
→ -0.875, -0.25
Cc1ccc(-c2nn(-c3ccccc3)cc2C=C2C(=O)NC(=O)NC2=O)o1
→ 0.24, 1.05
C=CCn1c(N)c(-c2nc3ccccc3n2C)sc1=S
→ 1.65, 0.1
COC(=O)c1sccc1Oc1nc(C)cc(C)n1
→ -0.265, /
CC(C)(CC(=O)O)CC(=O)N1CCN(c2cccc(Cl)c2)CC1
→ 0.21, /
CCc1ccc2c(CSc3nccn3C)cc(=O)oc2c1
→ /, 1
CNCC(O)c1ccc(OC(=O)C(C)(C)C)c(OC(=O)C(C)(C)C)c1 (stereo not given)
→ 6.65, /

N/C(=N\O)c1ccc(C2SCCS2)cc1
  CapD inh: 0.175 | AID504770: /
Cc1cc(I)ccc1-n1[nH]c(C(F)(F)F)cc1=O
  CapD inh: -0.59 | AID504770: 1.5
CC(C)N1CC(C(=O)Nc2ccccc2)CC1=O (stereo not given)
  CapD inh: / | AID504770: -0.95
O=C(Nc1nnc(-c2ccc(Cl)cc2)o1)c1ccco1
  CapD inh: -0.555 | AID504770: -0.55
Cc1nc(SCC(=O)N2CCNC2=O)n(C2CCCCC2)c1C
  CapD inh: / | AID504770: 0.9
COc1ccc(C2C(C(=O)Nc3ccc(Br)cn3)=C(C)NC3=C2C(=O)CCC3)cc1 (stereo not given)
  CapD inh: 39 | AID504770: /
OC(CNCc1ccc2c(c1)OCO2)COc1ccc(Cl)c(Cl)c1 (stereo not given)
  CapD inh: 0.11 | AID504770: /
COc1ccc(/C=C2/c3cc(C)ccc3-c3ncccc32)cc1OC
  CapD inh: -0.59 | AID504770: /
CCOC(=O)c1c(NC=O)sc(C)c1C
  CapD inh: / | AID504770: -0.25
COc1ccc(OCC2CCNCC2)cc1
  CapD inh: / | AID504770: 0.7

C=CCOc1c(C=C2C(=O)N(C)C(=O)N(C)C2=O)c(C)nn1-c1ccccc1
  CapD inh: -0.685 | AID504770: /
COc1ccc(-c2onc(C)c2-c2cscn2)c(O)c1
  CapD inh: -0.045 | AID504770: -0.25
C#CCn1c(SCc2ccc(C)cc2)nc(-c2ccccc2)c1-c1ccccc1
  CapD inh: -0.785 | AID504770: /
CCOC(=O)c1cnn(CCOC(=O)c2ccccc2F)c1NC(=O)c1ccccc1F
  CapD inh: -0.155 | AID504770: -0.05
CC(=O)Nc1nc2nc(C)cc(C)n2[n+]1-c1ccccc1
  CapD inh: 0.7 | AID504770: 0.2
Oc1c(Br)cc(CN2CCCCC2)c2cccnc12
  CapD inh: -1.59 | AID504770: 0.7
Nn1c(Nc2ccc(Cl)cc2)nncc1=O
  CapD inh: / | AID504770: 0.75
CCN1CCN(c2nnc(-c3cccs3)c3ccccc23)CC1
  CapD inh: / | AID504770: -0.05
CCN(CC)S(=O)(=O)c1ccc(Cl)nc1
  CapD inh: 0.23 | AID504770: 0.25
COc1ccc(-c2cn[nH]c2C)cc1
  CapD inh: 0.55 | AID504770: 0.55

COc1ccc2c(c1)SC1=NCCS(=O)(=O)N12
  CapD inh: 0.055 | AID504770: -0.1
c1ccc(N=Nc2ccccc2)cc1
  CapD inh: -0.725 | AID504770: -0.15
CCOC(=O)c1sc2nc(SCC(=O)NCc3ccco3)n(Cc3ccc4c(c3)OCO4)c(=O)c2c1C
  CapD inh: -0.525 | AID504770: /
Cc1ccc(C(=O)N/C(=C\c2ccc(C(C)C)cc2)C(=O)Nc2c(C)n(C)n(-c3ccccc3)c2=O)cc1
  CapD inh: -0.3 | AID504770: /
Cc1cc(=O)[nH]n1C
  CapD inh: / | AID504770: -0.05
C=CCNC(=O)C1CCCN(S(=O)(=O)c2cc(Cl)ccc2OC)C1 (stereo not given)
  CapD inh: -0.255 | AID504770: -0.55
CC(=O)Nc1ccc(N=C2C(=O)N(CCC(C)C)c3ccccc32)cc1
  CapD inh: / | AID504770: -0.55
Nc1nc(Cn2nnc(-c3ccc(F)cc3)n2)nc(N2CCOCC2)n1
  CapD inh: 0.785 | AID504770: /
Cc1ccc(C(C)C)c(OCC(=O)NC2CCN(C)CC2)c1
  CapD inh: 0.205 | AID504770: -0.7
FC(F)(F)c1ccncc1-c1noc(-c2ccccc2)n1
  CapD inh: 0.16 | AID504770: -1.35

Single records, from the list above.
Profile of `COc1ccc(OCC2CCNCC2)cc1` → CapD inh = /; AID504770 = 0.7
Profile of `C=CCn1c(N)c(-c2nc3ccccc3n2C)sc1=S` → CapD inh = 1.65; AID504770 = 0.1

(further entries)
CCc1ccc(S(=O)(=O)Nc2ccc3oc(=O)sc3c2)cc1
  CapD inh: -1.27 | AID504770: -0.4
c1ccc(Nc2nc(NCCN3CCOCC3)nc(Nc3ccccc3)n2)cc1
  CapD inh: -0.55 | AID504770: /
CN(C)c1cc(-c2n[nH]c(=S)n2C)nc(N(C)C)n1
  CapD inh: 3 | AID504770: /
O=C(NCC1CCCC(CNC(=O)N2CCc3ccccc32)C1)N1CCc2ccccc21 (stereo not given)
  CapD inh: / | AID504770: 0.45
NC(=O)CN1C(=O)Cc2ccccc21
  CapD inh: / | AID504770: -0.75
CCOC(=O)c1cnn2c1nc(N1CCOCC1)c1ccccc12
  CapD inh: 1.7 | AID504770: -1.2
CN(C(=O)c1ccc(OC(F)(F)F)cc1)C1CCCCC1
  CapD inh: -1.39 | AID504770: -0.85
Cc1c(N2C(=O)c3ccccc3C2=O)c(=O)n(-c2ccccc2)n1C
  CapD inh: -0.105 | AID504770: 1.85
Cc1cc(C(F)(F)F)c2c(N)c(C(=O)c3ccc(Cl)s3)sc2n1
  CapD inh: -0.76 | AID504770: /
CCc1ccc(NC(=S)NN(C)C)cc1
  CapD inh: -0.815 | AID504770: 0.4

CC1(c2ccc([N+](=O)[O-])c(CS(=O)(=O)c3ccccc3)c2)OCCO1
  CapD inh: -0.135 | AID504770: /
COc1ccc(-c2nc3ccccn3c2NCc2ccc3c(c2)OCO3)cc1
  CapD inh: / | AID504770: 1.2
N#Cc1ccc(-c2ccccc2)nc1SCC(=O)c1ccccc1
  CapD inh: 0.395 | AID504770: -0.4
O=C1CN(C(=S)Nc2ccc(F)cc2)CCN1
  CapD inh: / | AID504770: 1.25
Cc1ccc(NC(=O)C2CC(=O)NC3=C2C(=O)CC(C)(C)C3)cc1C (stereo not given)
  CapD inh: 0.5 | AID504770: -0.55
COc1cc(OC)cc(C(=O)N=c2sc3cc(C)cc(C)c3n2C)c1
  CapD inh: 3 | AID504770: -0.95
CC(=O)Nc1ccc(SCC(=O)N2CCCCC2C)cc1 (stereo not given)
  CapD inh: / | AID504770: -0.3
Cc1cc(=O)oc2c3c(ccc12)O/C(=C\c1cccc([N+](=O)[O-])c1)C3=O
  CapD inh: -0.1 | AID504770: /
COC(=O)c1cn(-c2ccccc2)nc1C(=O)c1ccccc1
  CapD inh: 0.47 | AID504770: -0.2
CC1=C(C#N)C(c2sc3ccccc3c2Cl)C(C#N)=C(C)N1
  CapD inh: 2.78 | AID504770: 1.05

An excerpt of these results, with tabs:
SMILES	CapD inh	AID504770
CC1(c2ccc([N+](=O)[O-])c(CS(=O)(=O)c3ccccc3)c2)OCCO1	-0.135	/
COc1ccc(-c2nc3ccccn3c2NCc2ccc3c(c2)OCO3)cc1	/	1.2
N#Cc1ccc(-c2ccccc2)nc1SCC(=O)c1ccccc1	0.395	-0.4
O=C1CN(C(=S)Nc2ccc(F)cc2)CCN1	/	1.25
Cc1ccc(NC(=O)C2CC(=O)NC3=C2C(=O)CC(C)(C)C3)cc1C (stereo not given)	0.5	-0.55
COc1cc(OC)cc(C(=O)N=c2sc3cc(C)cc(C)c3n2C)c1	3	-0.95

More records follow.
CCCC(=O)N1c2ccccc2NC2=C(C(=O)CCC2)C1c1cccs1 (stereo not given)
  CapD inh: -1.34 | AID504770: -0.15
N#CC1=C(N)OC2=C(C(=O)CC(c3ccco3)C2)C1c1ccc(OCc2ccc(F)cc2)cc1 (stereo not given)
  CapD inh: -0.895 | AID504770: /
COC(=O)c1ccc(C)c(NC(=O)c2ccc3c(c2)CC(C)N3S(C)(=O)=O)c1 (stereo not given)
  CapD inh: / | AID504770: -0.35
O=C(O)c1ccc(-c2cccc(C(F)(F)F)c2)o1
  CapD inh: / | AID504770: -1
COCC(C)n1c(SCc2ccccc2C#N)nc2ccccc2c1=O (stereo not given)
  CapD inh: / | AID504770: 1.85
C/C(CC1(O)C(=O)N(Cc2ccccc2)c2ccccc21)=N\O (stereo not given)
  CapD inh: 0.225 | AID504770: -0.55
CC(C(=O)Nc1ccc(Cl)cc1Cl)N1CCCN(c2ccc(C(F)(F)F)cn2)CC1 (stereo not given)
  CapD inh: / | AID504770: -0.6

Assay outcomes (PubChem BioAssay)
